Compound activity deposited in PubChem by several laboratories.
Sa ugtP lethal: growth inhibition of ugtP-null S. aureus, primary screen, RN4220 ugtP deletion, OD600; 16 h; some inactives read as strong as hits; growth inhibition, % (no concentration beside the values); 0.54% of 330,000 active; AID 1259309, 2017;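 active = z-score under -3 and OD600 up to 0.15 on both plates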;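 also: plate controls were untreated wells for no effect and antibiotic for full effect; wells of about 80 µL received 100 nL stock; the first replicate is given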
PrP UTR inh: inhibition of PrP 5' UTR reporter expression; 0.35% of 340,000 active; inhibition, % (no concentration beside the values); cell-based PrP 5' UTR mRNA reporter, plate reader;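 active = every replicate at 50% or more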;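 also: 0 = median of the neutral control wells; tested in H4 reporter cells; numbers are from one replicate; inactives centre near -14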
Autofluor counter: flagged as autofluorescent in microsphere protease counterscreen; compound autofluorescence counterscreen, microsphere flow cytometry; hits give high values; 3.1% of 360,000 active; fluorescence intensity (no concentration beside the values); AID 624483;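 active = at least 3 SD above the mean of all compounds, about 16000 in these data; inconclusive = too few beads counted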;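 also: 100 nL of 1 mM stock went into each well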
BJeLR viability: MLPCN primary cell-based screen for lethality selective to Ras in HRASV12 cells | BJeLR (HRASV12) viability, CellTiter-Glo ATP luminescence, 48 h; reference of the scale not given here | inhibition, % (no concentration beside the values) | 0.17% of 300,000 active;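 active = replicate mean above 50%; inconclusive = above 50% but judged a plate artefact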;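 also: 50 nL library stock added to about 25 µL; numbers are from one replicate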
Mtb hypoxia inh: PubChem AID 1159583; M. tuberculosis hypoxia-regulated fluorescent reporter, fluorescence; fluorescence inhibition, % (no concentration beside the values); 0.1% of 300,000 active;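 active = 35 to 45% if threefold the growth effect, above 45% if 1.5-fold the growth effect; inactive = the rest, general growth blockers included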;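 also: wells of about 50 µL received 100 nL stock; 0% = vehicle wells and 100% = reference inhibitor wells; whole bacteria with a GFP reporter of the hypoxia response; strong numbers were not always called active; many hits fall short of the cut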
Sa RN4220 lethal: growth inhibition of S. aureus RN4220, primary screen, OD600; 0.33% of 330,000 active; 16 h; inhibition, % (concentration not given with the values);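 active = z-score of -3 or lower and OD600 up to 0.18 on both plates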;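 also: plate controls were untreated cells for no effect and reference antibiotic for full effect; stock transfer was 100 nL into about 80 µL; one replicate is shown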
Mtb hypoxia inh growth: recorded beside Mtb hypoxia inh, whose call it bears; growth inhibition, %; measured here: M. tuberculosis growth (absorbance);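 0% = vehicle and 100% = reference antibiotic; read after six days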
* = called active by the depositor; ? = inconclusive; · = no result given.

SMILES	Sa ugtP lethal	PrP UTR inh	Autofluor counter	BJeLR viability	Mtb hypoxia inh	Mtb hypoxia inh growth	Sa RN4220 lethal
CCOc1ccc(CN2CCN(S(=O)(=O)c3ccc(NC(C)=O)cc3)CC2)cc1OC	11	-12	7304	6	10	1	6.4
Cc1c(NC(=O)c2ccc(F)cc2)c(=O)n(-c2ccccc2)n1C	3	-18	5819	-5	1	6	0.9
CCOc1ccccc1N(C)C(=O)C1CCN(S(=O)(=O)c2cccc3nonc23)CC1	5	-4	2548	-12	·	·	4.2
CCN=C1S/C(=C\c2ccc(N3CCOCC3)cc2C)C(=O)N1CC	0	-32	2011	-6	-2	12	-3.2
Cc1cc(NC(=O)CSc2nnc(-c3ccccc3Cl)o2)no1	1	-11	3789	-12	10	2	0.8
C/C=C/c1ccc(OCC(=O)NNC(=O)CN(C)S(=O)(=O)c2ccc(C)cc2)c(OC)c1	0	-21	8141	·	3	1	2.8
CCOC(=O)N1CCN(C(=O)CCc2c(C)nc3nc(C)nn3c2C)CC1	2	7	8151	4	-2	2	3.8
CC(=O)Nc1ccc(S(=O)(=O)NC2(C(F)(F)F)NC(=O)N(c3ccc(Cl)cc3)C2=O)cc1 (configuration not stated)	5	-15	15768	-2	4	5	4.3
C=C1CCC[C@]2(C)C[C@H]3OC(=O)C(CN4CCOCC4)[C@H]3C[C@@H]12 (some centres not stated)	3	-7	3956	1	11	-12	7.6
CCOc1cc(NC(=S)Nc2cccc(OC)c2)c(OCC)cc1NC(=O)c1ccc(C)cc1	-2	-2	5883	-5	-7	3	4.4
O=C(COC(=O)CCC(=O)N1CCOCC1)Nc1ccc(Br)cc1Br	11	-5	2774	·	8	2	5.3
COc1c(Cl)cc(Cl)cc1C(=O)Nc1ccccc1N1CCN(C(C)=O)CC1	0	-9	2397	-3	·	·	1.0
Cc1ccc(-c2nnn(CC(=O)N3C(C)CCCC3C)n2)cc1 (configuration not stated)	2	23	·	-2	11	2	5.0
C#Cc1ccc([C@H]2C=C(C(=O)OCC=C)O[C@@H](OCc3ccc(CO)cc3)C2)cc1	·	-11	3780	-6	·	·	·
COc1cc(C(CCN2CCN(c3ccccc3)CC2)c2c(OC)cc(OC)c3ccc(=O)oc23)cc(OC)c1OC (configuration not stated)	7	-12	4023	-7	2	9	1.2
CC(C)C[C@H](NC(=O)c1[nH]cnc1C(=O)N[C@H](C)c1ccccc1)C(=O)OC(C)(C)C	·	-9	3622	4	·	·	·
Nc1n[nH]c2ccccc12	2	-28	2680	-3	2	1	3.8
CCCC(=O)c1ccc(-c2ccccc2)cc1	44	-21	2042	0	·	·	17
CN1CCN(NC(=O)c2cc(-c3cccc(Cl)c3)nc3ccccc23)CC1	1	-10	4197	9	11	7	-1.0
Cc1ccc(N(CCC#N)C(=O)CSc2ccc3c(c2)OCCO3)cc1	-8	-18	2563	4	5	8	0.0
O=C(CN1C(=O)NC2(CCCC2)C1=O)c1ccc(Cl)s1	7	-18	4970	-10	8	12	0.7
CCOC1OC(C(=O)N2CCN(C)CC2)=CC(C)C1CCCO (configuration not stated)	0	·	·	·	-4	-8	-0.7
COc1cc(OC)cc(C(=O)Nc2cc(C)on2)c1	5	-8	3542	-2	6	4	4.3
CCC1=C(OC(=O)N(CC)CC)N2C(=O)OC(=NCCOC)[C@]2(Cc2ccccc2)C2C1=CCC1C(=O)NC(=O)C12 (some centres not stated)	-1	·	·	·	16	8	11
CC(=O)c1c(C)[nH]c(C(=O)Nc2ccccc2N2CCOCC2)c1C	4	1	3279	1	4	-1	5.5

Next part
SMILES	Sa ugtP lethal	PrP UTR inh	Autofluor counter	BJeLR viability	Mtb hypoxia inh	Mtb hypoxia inh growth	Sa RN4220 lethal
CSCCC(NC(=O)c1ccc(Cl)cc1)C(=O)OCC(=O)Nc1cc(Cl)ccc1C (configuration not stated)	-8	0	2403	9	14	8	0.5
Cc1ccc(C(=O)Nc2sc(C)c(-c3ccccc3)c2C(N)=O)cc1[N+](=O)[O-]	-8	39	2842	-1	0	0	6.3
CCCCN(C(=O)C1CCC1)c1c(N)n(CC(C)C)c(=O)[nH]c1=O	2	-42	·	6	7	2	3.3
CC1=C(c2ccc(C)cc2)S(=O)(=O)N(CC(=O)O)C1=O	5	·	9924	-3	3	5	2.4
O=C(Cn1c(=O)oc2cc(S(=O)(=O)N3CCCC3)ccc21)N1CCN(C2CCCCC2)CC1	17	-46	5367	-2	5	9	4.6
CN(C)C=NC(=O)/C(C#N)=C/c1ccccc1	2	2	2624	5	4	-1	2.8
CCCn1c(N)c(C(=O)COC(=O)c2cccc(S(=O)(=O)N3CCOCC3)c2)c(=O)[nH]c1=O	8	-19	?	·	4	-1	3.1
CCSc1nnc(NC(=O)COc2cccc3ccccc23)s1	0	-13	5935	-9	6	14	-0.5
Cc1cc(C(=O)N2CCCC(C(=O)c3cccc(C(F)(F)F)c3)C2)nc(C)n1 (configuration not stated)	·	-19	2214	5	·	·	·
CCOc1ccc(S(=O)(=O)NN=C2CCN(C(C)=O)CC2)cc1	5	·	?	-1	-4	-6	4.0
CC(=O)Nc1ccc(CN2CCN(CCC(C)C)C(CCO)C2)cc1 (configuration not stated)	8	-19	4123	4	6	5	19
O=C(Nc1cccc(-c2csc(Nc3ccc(Cl)cc3)n2)c1)c1ccccc1	38	-14	3817	-11	9	2	15
FC(F)(F)c1cccc(N2CCN(CC3CC=CCC3)CC2)c1 (configuration not stated)	1	0	3051	-3	19	9	-9.4
CCCc1cc(=O)[nH]c(SCc2cc(=O)oc3c(C)c(C)ccc23)n1	-10	-38	6681	4	11	-2	15
Cc1ccc2nc(SCC(=O)N3CCN(C(=O)c4ccco4)CC3)[nH]c2c1	1	-6	9689	-6	-2	6	6.2
COc1ccc(OCC(=O)Nc2ncc3c(n2)CC(C)(C)CC3=O)cc1	1	2	22939*	3	2	-2	0.7
NC(=NCc1ccco1)NC(=O)c1ccc(Cl)cc1	-2	-29	4553	0	7	2	5.7
CC(=O)Nc1ccc(S(=O)(=O)NCC(=O)NCCc2ccc(S(N)(=O)=O)cc2)cc1	-2	-38	4663	-1	-4	4	-0.2
COC(=O)c1ccc(OC(=O)CCN2c3ccccc3Sc3ccccc32)cc1	10	-7	2436	-5	13	-6	13
O=C(COC(=O)CNS(=O)(=O)c1ccc(F)c(F)c1F)NCCc1ccccc1	-5	-23	4744	5	3	-16	-5.2
COc1ccccc1CNC(=O)C1CC(c2ccccc2[N+](=O)[O-])=NO1 (configuration not stated)	14	-16	2919	9	5	8	14
CC(NC(=O)Cc1ccc(S(=O)(=O)N2CCOCC2)s1)c1ccc(Cl)cc1Cl (configuration not stated)	0	-29	5993	0	11	2	-2.4
COc1ccc(Br)cc1S(=O)(=O)N1CCOCC1	5	2	4181	2	4	4	4.1
COc1ccc2oc(=O)c(C(=O)Nc3cccc(C)c3)cc2c1	-6	-61	4523	1	3	0	3.8
Cc1cccc(NC(=S)NCCC(c2ccccc2)c2ccccc2)c1	5	-9	2349	-1	3	3	-3.6

A draw from above in order of formula weight, high to low.
SMILES	Sa ugtP lethal	PrP UTR inh	Autofluor counter	BJeLR viability	Mtb hypoxia inh	Mtb hypoxia inh growth	Sa RN4220 lethal
CC(C)C[C@H](NC(=O)c1[nH]cnc1C(=O)N[C@H](C)c1ccccc1)C(=O)OC(C)(C)C	·	-9	3622	4	·	·	·
COc1c(Cl)cc(Cl)cc1C(=O)Nc1ccccc1N1CCN(C(C)=O)CC1	0	-9	2397	-3	·	·	1.0
CCN=C1S/C(=C\c2ccc(N3CCOCC3)cc2C)C(=O)N1CC	0	-32	2011	-6	-2	12	-3.2
Cc1c(NC(=O)c2ccc(F)cc2)c(=O)n(-c2ccccc2)n1C	3	-18	5819	-5	1	6	0.9
NC(=NCc1ccco1)NC(=O)c1ccc(Cl)cc1	-2	-29	4553	0	7	2	5.7

The list continues:
SMILES	Sa ugtP lethal	PrP UTR inh	Autofluor counter	BJeLR viability	Mtb hypoxia inh	Mtb hypoxia inh growth	Sa RN4220 lethal
COc1cc(OC)cc(C(=O)NCC(=O)NCC(c2ccco2)N2CCCCC2)c1 (configuration not stated)	4	-28	3088	·	13	8	1.5
c1cn2c(NC3CCCC3)c(-c3ccc(N4CCOCC4)cc3)nc2cn1	-3	-7	5885	0	14	11	-7.1
CC(=NOC(=O)c1ccc(Br)cc1)c1ccccn1	6	·	·	·	11	10	6.7
CC(C)(C)NC(=O)c1cccc(NC(=O)c2ccc3c(c2)C(=O)N(C(C)(C)C)C3=O)c1	0	-13	4301	-14	-4	2	2.1
COC1=C(C)C(O)=C(C(=O)/C=C/c2ccccc2)C(=O)C1(C)C	·	-9	2936	14	·	·	·
O=C(COC(=O)c1ccc2c(c1)OCO2)NC1CCS(=O)(=O)C1 (configuration not stated)	0	2	3132	0	14	7	4.9
O=C(/C=C/c1cccc(Cl)c1)NCc1ccccc1	-10	-28	4297	-10	-4	0	-1.9
O=C(CCSc1ccccc1)NC(=O)COC(=O)c1ccc(OC(F)F)cc1	7	-5	2611	·	-3	5	6.7
CCOC(=O)c1c(C)[nH]c(C(=O)CN2C(=O)NC3(CCCC3)C2=O)c1C	5	-40	3643	-4	14	9	6.2
O=C(Nc1nc(-c2ccco2)c(-c2ccco2)s1)c1ccc(F)cc1F	-8	-38	4465	·	9	5	7.1
Cc1c(Cl)c([N+](=O)[O-])nn1Cc1ccc(C(=O)NN)o1	8	3	·	-6	-2	1	2.3
Cc1ccc(NC(=O)CCn2c(=O)oc3ccccc32)cc1	5	-4	4253	-3	-1	6	4.4
O=C(c1ccco1)N1CCN(C(=O)c2cnn3cccnc23)CC1	0	-11	4106	3	2	6	-0.1
Cc1cc(C)c(N)cc1C	4	-10	3989	·	9	4	2.9
CC1CCc2nn(CC(=O)NCCC3=CCCCC3)cc2C1 (configuration not stated)	-12	-2	5819	-15	·	·	-2.2
O=S(=O)(NCc1ccc2c(c1)OCO2)c1cccc2cccnc12	7	-12	3802	-2	·	·	5.1
CC1CC(C)CN(S(=O)(=O)c2cccc3nonc23)C1 (configuration not stated)	8	-15	4783	0	13	-8	2.4
COc1cc(C=NNC(=O)c2ccccc2F)ccc1Oc1ccc([N+](=O)[O-])cn1	7	·	·	·	19	10	2.6

Full records, looked up by structure.
Profile of `COc1cc(OC)cc(C(=O)NCC(=O)NCC(c2ccco2)N2CCCCC2)c1` (configuration not stated) = Sa ugtP lethal: 4; PrP UTR inh: -28; Autofluor counter: 3088; BJeLR viability: ·; Mtb hypoxia inh: 13; Mtb hypoxia inh growth: 8; Sa RN4220 lethal: 1.5
Profile of `Cc1ccc(NC(=O)CCn2c(=O)oc3ccccc32)cc1` = Sa ugtP lethal: 5; PrP UTR inh: -4; Autofluor counter: 4253; BJeLR viability: -3; Mtb hypoxia inh: -1; Mtb hypoxia inh growth: 6; Sa RN4220 lethal: 4.4
